Rango complex inh: inhibitors of Rango-importin beta complex formation; Q14974; Rango CFP/YFP FRET sensor + importin beta, 45 min; Potency, µM (doses to about 92.2 µM), without a hit: at the highest dose inhibition of complex formation; 0.031% of 340,000 active; AID 540263; active = rising FRET ratio curve, often small or poorly fitted; inconclusive = mostly compound fluorescence or quenching in the first reads; inactive = flat curves in all reads;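 note: potency is the fitted concentration of half-maximal effect; 0% = DMSO wells and 100% = buffer wells lacking importin beta; nearly all actives have a fitted effect of over 15% in size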
Target sequence (Q14974 whole entry, looked up): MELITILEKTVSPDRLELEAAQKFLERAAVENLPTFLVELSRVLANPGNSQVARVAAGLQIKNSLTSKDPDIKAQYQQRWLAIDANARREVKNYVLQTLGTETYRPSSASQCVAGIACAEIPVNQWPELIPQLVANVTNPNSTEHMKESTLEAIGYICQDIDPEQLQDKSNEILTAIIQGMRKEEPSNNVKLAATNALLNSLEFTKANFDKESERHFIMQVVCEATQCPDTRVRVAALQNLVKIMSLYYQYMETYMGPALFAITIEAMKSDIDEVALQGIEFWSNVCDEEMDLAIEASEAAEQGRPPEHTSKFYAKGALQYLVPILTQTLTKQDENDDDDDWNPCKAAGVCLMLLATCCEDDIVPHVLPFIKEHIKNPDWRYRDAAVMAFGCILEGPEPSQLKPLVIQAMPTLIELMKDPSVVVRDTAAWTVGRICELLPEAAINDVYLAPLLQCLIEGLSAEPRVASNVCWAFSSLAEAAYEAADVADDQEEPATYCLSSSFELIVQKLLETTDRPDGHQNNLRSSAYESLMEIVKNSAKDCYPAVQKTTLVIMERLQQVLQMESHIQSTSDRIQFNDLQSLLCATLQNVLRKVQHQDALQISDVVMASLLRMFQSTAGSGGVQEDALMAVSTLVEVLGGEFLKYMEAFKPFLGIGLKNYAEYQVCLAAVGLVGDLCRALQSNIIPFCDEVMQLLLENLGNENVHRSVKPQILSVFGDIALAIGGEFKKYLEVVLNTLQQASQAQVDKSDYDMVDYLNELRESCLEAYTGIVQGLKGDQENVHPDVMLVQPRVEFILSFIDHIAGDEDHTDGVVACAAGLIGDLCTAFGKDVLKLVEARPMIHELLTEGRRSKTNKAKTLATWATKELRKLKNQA
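FRET biosensor Rango (snurportin 1 IBB between N-terminal EYFP and C-terminal Cerulean), 50 nM in PBS/1 mM DTT/0.02% Tween-20/0.1% BSA, preincubated 5 min RT with compound; 0.125 microM importin beta added, 45 min RT, CFP/YFP FRET ratio read.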
miR-21 FLuc: raises the signal of a miR-21 reporter | HeLa miR-21 FLuc reporter, luciferase, 48 h | Potency, µM (titrated, usually from 38.3 µM), inactives show at the highest dose reporter change, positive = more light | 340,000 tested, under 10 active; active = well fitted rising curve with a large enough effect; inconclusive = small, poorly fitted or top-dose-only effect; inactive = no such curve, though single readings can be large or run the other way;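 note: % of control where 0% means no effect; miR-21 action dims this reporter so a rising signal means less miR-21 action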
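HeLa miR-21-FLuc reporter line, endogenous miR-21; 2000 cells/well in DMEM/10% FBS; compound titration up to ~40uM final, 48 h, 37 degree Celsius; luciferase detection reagent, 15 min lysis, CCD luminescence.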
Rango release inh: prevents RanGTP from dissociating the Rango-importin beta complex; O95149+P62826; Biochemical FRET Rango-importin beta, RanGTP-induced dissociation; Potency, µM (series often up to 46.1 µM), for inactives: top-dose activity change, negative = inhibition; 0.071% of 340,000 active; AID 540253; active means falling FRET ratio curve, often poorly fitted, with flat reads before Ran was added; inconclusive means other falling curves, or compound fluorescence or quenching; inactive means flat or rising ratio curve;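 note: potency is the fitted concentration of half-maximal effect; % of control where 0% means no effect; nearly all actives have a fitted effect of over 45% in size; -100% = wells without RanGTP and RCC1; the record marks most hits as doubtful in a second field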
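Rango/importin beta premix (0.1/0.25 uM final), PBS + 1 mM DTT + 0.02% Tween-20 + 0.1% BSA; cpd 5 min RT; FRET pre-read; + RanGTP-RCC1 (0.6 uM Ran, 2 mM GTP, 0.2 uM RCC1); 45 min RT; FRET post-read, ex 430, em 486/530 nm.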
GLA inh pH 4.5: blocks human alpha-galactosidase A at pH 4.5 | P06280 | purified enzyme, 4-MU-alpha-Gal fluorescence, pH 4.5 | activity change, negative = inhibition, % at 105 µM | 230,000 tested, under 10 active | AID 1467; inconclusive = small, poorly fitted or top-dose-only inhibition, or a rising curve; inactive = flat fitted curve, though single readings scatter; no compound was filed as active;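 note: 0% = full activity with enzyme and -100% = basal without enzyme; dose as in the result columns while the protocol names 77 µM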
An asterisk follows results filed as active; ? = inconclusive; . = not tested or not shown; [ ] = another dose, or the depositor's remark. Some of the compounds tested; rates above refer to the full screens.

Rango complex inh	miR-21 FLuc	Rango release inh	GLA inh pH 4.5	structure
6.8%	-3%	-10%	-24	COc1ccc(-n2c(SCC(N)=O)nnc2-c2ccc(NS(=O)(=O)c3ccc(C)cc3)cc2)cc1
2.5%	-1%	11%	.	CN(C)CCC#CC1(O)c2ccccc2-c2ccccc21
-1.9%	-2%	2%	.	Cc1coc2c1c(C)cc1oc(=O)c(CC(=O)N[C@@H](C)C(=O)O)c(C)c12
5.1%	0%	-1%	-10	CC(C)OC(=O)c1cccc(C(=O)O)n1
-0.8%	1%	-11%	-3	Cn1nnnc1SCCNCc1ccc(Cl)cc1
3.6%	-1%	1%	4	CCCc1nnc(NC(=O)CCN2C(=O)c3ccccc3C2=O)s1
-0.8%	4%	-4%	.	CC(C)N(C)C1CCN(S(=O)(=O)c2ccc(-c3ccc(=O)[nH]n3)s2)CC1
0.9%	2%	5%	-2	CCc1nc(N(CC)CC)c2oc3ccccc3c2n1
-3.7%	-13%	3%	.	CCc1ccc(CCC(=O)Nc2ccc(Cl)cc2)o1
-2.9%	-15%	2%	1	CCN1C(=C(C#N)C#N)C=Cc2ccccc21
.	-5%	.	2	Cc1sc(/N=C/c2ccccc2O)c(C#N)c1C
0.3%	0%	5%	0	CCOc1ccc(S(=O)(=O)Nc2ccc(S(=O)(=O)N3CCCC3)cc2)cc1
0.2%	-15%	0%	-1	CCCCn1c(-c2ccccc2)cnc1SCC(=O)NCCc1ccc(OC)c(OC)c1
5.2%	.	-13%	2	COc1ccc2c(c1)OC(=O)CC2c1cc(OC)c(OC)c(OC)c1 (configuration not stated)
-3.2%	-55%	14%	5	Cc1nc2ccc(NC(=O)Cc3c(F)cccc3Cl)cc2s1
0.6%	-6%	-6%	7	COC(CN(C(=O)CCl)C(C(=O)NC1CCCCC1)c1ccc(C)cc1)OC (configuration not stated)
1.1%	-2%	-5%	3	O=C(CSc1ccc2nnc(-c3ccc(F)cc3)n2n1)NCC1CCCO1 (configuration not stated)
-0.2%	1%	3%	5[21.1 µM]	Cc1ccc(S(=O)(=O)NN2C(=O)c3ccccc3NC2c2ccccc2)cc1 (configuration not stated)
4.2%	-1%	-5%	7	CCc1ccccc1NC(=S)N(CCOC)C(C)c1ccco1 (configuration not stated)
0.0%	-1%	-1%	4	Cc1cccc(C)c1NC(=O)CSc1nnc(-c2ccco2)n1N
-1.6%	-4%	-7%	21	Cc1cccc(C)c1Nc1nnc(SCC(=O)NC2CCS(=O)(=O)C2)s1 (configuration not stated)
6.6%	-7%	-11%	0	Cc1ccsc1C1C2=C(CC(C)(C)CC2=O)Nc2ncnn21 (configuration not stated)
-0.3%	-1%	-5%	.	CCCS(=O)(=O)c1nc(S(=O)(=O)c2ccc(C)cc2)c(NCCCN2CCCC2=O)s1
-2.3%	0%	0%	.	CCN(CC)C(=O)Cn1cc(S(=O)(=O)CC(=O)NCc2ccccc2)c2ccccc21
0.6%	2%	2%	4	COC(=O)[C@@]1(C)CC[C@]2(C)CC[C@@]3(C)C(=CC(=O)C4[C@@]5(C)CC[C@H](O)C(C)(C)[C@@H]5CC[C@]43C)[C@H]2C1 (some centres not stated)

The listing continues.
Rango complex inh	miR-21 FLuc	Rango release inh	GLA inh pH 4.5	structure
-1.0%	-5%	-18%	.	Cc1ccc([N+](=O)[O-])cc1N=Nc1c(C)[nH]n(C(N)=S)c1=O
-0.3%	2%	-8%	-9	O=C(CCS(=O)(=O)c1ccc(Br)s1)NC1CCCC1
6.9%	3%	-6%	15	Cc1ccc(-c2nnc(N3CC(C)OC(C)C3)c3ccccc23)cc1 (configuration not stated)
-2.1%	-7%	2%	.	O=C(CNC(=O)c1cccnc1)N=Nc1c(O)[nH]c2c(Br)cc(Br)cc12
?	-14%	-11%	0	NC(=O)CC(NC(=O)c1ccccc1)c1ccc(NCc2ccccc2)c([N+](=O)[O-])c1 (configuration not stated)
-0.1%	-5%	-5%	-4	CC(C)CC1NC(=O)N(CC(=O)Nc2ccc3c(c2)CCC3)C1=O (configuration not stated)
0.0%	-9%	13%	5	O=C(NCc1ccco1)C1CCC(N2C(=O)C3C4CCC(C4)C3C2=O)CC1 (configuration not stated)
-1.4%	1%	-4%	7	Cc1nc(C(=O)NC2CCCCC2)sc1C1(C)CC(c2cccc([N+](=O)[O-])c2)=NO1 (configuration not stated)
6.0%	4%	0%	-1	Cc1cc(C(=O)N(C2CCCCC2)C2CCCCC2)no1
0.3%	1%	1%	-16	COC(=O)c1ccccc1NC(=S)N(Cc1ccc2c(c1)OCO2)Cc1cc2cc(OC)ccc2[nH]c1=O
1.4%	-1%	1%	-3	O=[N+]([O-])c1ccccc1/C=N/NC1=NS(=O)(=O)c2ccccc21
-1.2%	-3%	1%	-4	Cc1ccc(NC(=O)C(OC(=O)c2ccccc2Cl)c2ccccc2)cc1Cl (configuration not stated)
-1.9%	-1%	-10%	-3	Cc1cccc(NC(=O)CN(C)S(=O)(=O)c2cnc[nH]2)c1
2.6%	19%	28%	-18	CC(O)CN(C)CC/C=C1/c2ccccc2CSc2ccccc21 (configuration not stated)
-3.3%	0%	4%	.	CCOP(=O)(NC(c1ccccc1)c1nc2ccccc2[nH]c1=O)OCC (configuration not stated)
-4.1%	-2%	-3%	-2	Cc1nn(C)c(Cl)c1CN1CCN(CC(C)C)C(CCO)C1 (configuration not stated)
-2.3%	-26%	-5%	-1	O=C1c2ccccc2C(Nc2ccccc2)N1c1ccc(Cl)cn1 (configuration not stated)
2.9%	-16%	-7%	?	CCN1C(=O)/C(=C\c2ccc(-c3ccc([N+](=O)[O-])cc3OC)o2)SC1=Nc1cccc(C(=O)O)c1
-1.4%	5%	2%	10	Nc1nnc(Cc2ccc(F)cc2)s1
-2.7%	-19%	-18%	3	Cc1sc(NC(=S)NC(=O)C2CCCCC2)c(C(N)=O)c1C
-3.9%	-14%	-5%	-1	Cc1nn(Cc2ccc(C(=O)NN)o2)c(C)c1Cl
6.0%	-4%	29%	-8	O=C(Oc1ccc(Br)cc1)C1CC(=O)N(c2ccc(F)cc2)C1 (configuration not stated)
1.8%	-2%	16%	2	COc1ccc2[nH]c(C)c(CN3CCCCC3)c(=O)c2c1
-1.4%	-19%	-13%	7	CCCN(CCC)CC(=O)N1CC(=O)Nc2ccccc21
0.6%	0%	-12%	7	CCOc1ccc(CC(=O)Nc2c(C(N)=O)oc3ccc(Br)cc23)cc1OCC

In a second layout: 2 of the compounds above.
canonical_smiles	Rango complex inh	miR-21 FLuc	Rango release inh	GLA inh pH 4.5
COc1ccc2[nH]c(C)c(CN3CCCCC3)c(=O)c2c1	1.8%	-2%	16%	2
CCCN(CCC)CC(=O)N1CC(=O)Nc2ccccc21	-1.4%	-19%	-13%	7

Further records follow.
Rango complex inh	miR-21 FLuc	Rango release inh	GLA inh pH 4.5	structure
0.7%	9%	-13%	4	Cn1c(SCC(=O)NCc2ccc3c(c2)OCO3)nnc1-c1cc2ccccc2cc1O
4.1%	5%	28%	.	CC(=O)N1CCN(c2ccc(NC(=O)c3ccc(C)c([N+](=O)[O-])c3)cc2)CC1
2.5%	-1%	-10%	-5	Cc1ccc(C(=O)NCC(=O)OCC(=O)NCC(F)(F)F)cc1
?	-9%	22%	-20	COc1ccccc1NC(=O)N1CCCC(c2nc3c(nnn3Cc3ccc(C)cc3)c(=O)[nH]2)C1 (configuration not stated)
-5.1%	1%	28%	-6	Cc1ccc(CNCC2CCCO2)s1 (configuration not stated)
0.3%	0%	1%	.	O=C(c1ccco1)N1CCN(C2CC(=O)N(c3ccc(C(F)(F)F)cc3)C2=O)CC1 (configuration not stated)
-0.7%	-2%	-12%	-10	CC(C)N(CCCNC(=O)c1ccc(N2CCCC2=O)cc1)Cc1ccccc1
5.6%	-3%	-9%	-8	C=CCN(CC=C)CCOc1cccc2ccccc12
-0.2%	-7%	-6%	-6	CCn1c(C)nc2cc(C(=O)NNS(=O)(=O)c3ccc(C)cc3C)ccc21
0.0%	-8%	3%	-7	CCc1c(C)sc(NC(=O)CSc2nc3c(c(C(F)(F)F)n2)CCc2ccccc2-3)c1C#N
-4.1%	.	-6%	.	COc1ccc(CNc2ccncc2)c(OC)c1OC
2.1%	-8%	6%	-3	CCOc1ccccc1C(=O)Nc1cc(OC)ccc1OC
-1.5%	-6%	-8%	-5	CCOC(=O)Cc1nnc(NC(=O)C(CC)Sc2nc(C)cc(C)n2)s1 (configuration not stated)
9.0%	.	-2%	.	COc1ccccc1NS(=O)(=O)c1cccc(C(=O)N2CCCC2)c1
4.4%	.	13%	.	COc1cccc2c1SCc1ccccc1C2CC(N)=O (configuration not stated)
0.7%	1%	?	.	COc1ccc(NC(=O)c2ccco2)c(NC(=O)c2ccc([N+](=O)[O-])cc2)c1
-3.3%	0%	0%	.	Cc1cc(C)n(CCNC(=O)C2CCC(=O)N(Cc3ccc(Cl)cc3)C2)n1 (configuration not stated)
1.1%	-2%	-10%	.	O=C(N/N=C\c1ccc[nH]1)c1cncc(Br)c1
0.5%	-5%	-8%	4	N#Cc1nc(Cc2ccccc2)oc1N1CCC(Cc2ccccc2)CC1
0.1%	6%	3%	1	Cc1ccc(N2CC(=O)N(c3ccc(C)cc3)CC2=O)cc1
-4.6%	-3%	-5%	-3	Cc1ccc(C(=O)NCC(=O)OCC(=O)Nc2ccc(Cl)cc2C(F)(F)F)cc1C
-0.3%	.	-1%	.	c1nc(NCc2ccc3c(c2)OCO3)c2cc(-c3ccc4c(c3)OCCO4)ccc2n1
-4.9%	-1%	12%	2	CCCCn1c(CNC(=O)C23CC4CC(CC(C4)C2)C3)nnc1SCC(=O)Nc1nnc(C)s1
1.9%	-4%	18%	5	CCOC(=O)C1=C(CC)Nc2ccccc2N=C1NC(=O)Nc1ccccc1OC
5.3%	-3%	14%	5	COc1ccccc1-c1nnc2n1N=C(C)CS2

Compound profiles, as listed above. Values in the order: Rango complex inh, miR-21 FLuc, Rango release inh, GLA inh pH 4.5
Listed for COc1cccc2c1SCc1ccccc1C2CC(N)=O (configuration not stated) = 4.4%, ., 13%, .
Listed for CC(=O)N1CCN(c2ccc(NC(=O)c3ccc(C)c([N+](=O)[O-])c3)cc2)CC1 = 4.1%, 5%, 28%, .
Listed for Cc1ccc(N2CC(=O)N(c3ccc(C)cc3)CC2=O)cc1 = 0.1%, 6%, 3%, 1
Listed for CCOC(=O)C1=C(CC)Nc2ccccc2N=C1NC(=O)Nc1ccccc1OC = 1.9%, -4%, 18%, 5
Listed for CCOc1ccccc1C(=O)Nc1cc(OC)ccc1OC = 2.1%, -8%, 6%, -3

Continuation:
Rango complex inh	miR-21 FLuc	Rango release inh	GLA inh pH 4.5	structure
3.4%	14%	-7%	-5	COc1cc(NC(=O)c2ccccc2)c(OC)cc1NC(=O)CN1CCN(c2ccccn2)CC1
2.7%	.	21%	.	Cc1cccc(C(=O)NCC(=O)N2CCN(S(=O)(=O)/C=C/c3ccccc3)CC2)c1
-0.6%	0%	5%	-7	COc1cc(S(=O)(=O)N(Cc2ccc(C)cc2)Cc2ccco2)ccc1-n1cnnn1
-0.3%	0%	7%	2	O=C(c1cc([N+](=O)[O-])cc([N+](=O)[O-])c1)N1CCN(C(=O)c2ccco2)CC1
0.7%	-1%	-14%	-10	CCS(=O)(=O)CCSc1nc(C)cc(C)n1
0.0%	-1%	0%	-7	N/C(Cc1ccc([N+](=O)[O-])cc1)=N\OC(=O)COc1ccc2ccccc2c1
-4.5%	.	9%	.	Cc1ccc(S(=O)(=O)N(C)c2ccc(OC(=O)CN3C(=O)NC4(CCCC4)C3=O)cc2)cc1
-0.7%	-6%	-15%	1	COc1cc(CN2C(=S)NC(C)(C)CC2(C)O)cc(OC)c1 (configuration not stated)
-0.2%	-6%	7%	-10	Cc1ccc([N+](=O)[O-])cc1NC(=O)CN1CCCCC1
